Env fusion inh – blocks HIV Env-driven cell-cell fusion | HeLa-JRFL Env/CEM21 cell fusion, luciferase | inhibition, % at 12.3 µM | hit rate 1.1% among 360,000 | AID 651610;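 active = mean replicate inhibition score of at least 50 and every replicate individually at or above 50; inconclusive = only one of the two criteria met; inactive = mean below 50 and not all replicates reaching 50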;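 also: 0% = plate neutral controls and 100% = maraviroc near 300 nM; one replicate is shown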
Yeast UUG start – modulators of start codon recognition fidelity in yeast | S. cerevisiae UUG-firefly luciferase reporter, luminescence/redox ratio | hit rate 0.13% among 350,000 | activity score, % at 18.7 µM;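 active = replicate mean at a twofold rise or more, about +100% in these data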;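 also: firefly luciferase made from a UUG start codon reports start codon fidelity; reporter light over untreated wells divided by growth signal over untreated wells; some hits fall short of that in this replicate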
An asterisk follows results filed as active; i = inactive; ? = inconclusive; [ ] = dose if it differs, or a comment. Not all compounds are listed; count on the stated rates, not on these rows.

SMILES	Env fusion inh	Yeast UUG start
N#C[C@H]1[C@@H](c2ccc(/C=C/c3ccccc3)cc2)[C@@H](CO)N1C(=O)C1CC1	4[16.7 µM]	-3
CNC[C@H]1OCCCC[C@@H](C)Oc2ccc(NC(=O)Nc3c(C)noc3C)cc2C(=O)N([C@@H](C)CO)C[C@H]1C	10[16.7 µM]	17
O=C(Nc1ccc(Cl)cc1)N[C@@H]1CC[C@H](CCn2cc(Cc3ccccc3)nn2)O[C@@H]1CO	-7[16.7 µM]	-13
COC(=O)C[C@H]1CC[C@H](NC(=O)Nc2ccc(C(F)(F)F)cc2)[C@@H](CO)O1	-5[16.7 µM]	-1
Cc1cccc(S(=O)(=O)N[C@@H]2CC[C@H](CCn3cc(-c4ccccn4)nn3)O[C@@H]2CO)c1	6[16.7 µM]	-3
C[C@H](CO)N1C[C@H](C)[C@@H](CN(C)S(C)(=O)=O)Oc2ncc(/C=C/c3ccccc3)cc2C1=O	24[16.7 µM]	0
COCCn1c(SCC(=O)Nc2ccc3c(c2)OCCO3)nc2ccccc2c1=O	-10	0
CCCN(C)C[C@H]1OCCCC[C@H](C)Oc2ccc(NC(=O)NC3CCCCC3)cc2C(=O)N([C@@H](C)CO)C[C@H]1C	-35[16.7 µM]	4
COc1ccc(S(=O)(=O)Nc2ccc3c(c2)CC(=O)N([C@@H](C)CO)C[C@@H](C)[C@H](CN(C)C(=O)Nc2ccc(C(F)(F)F)cc2)O3)cc1	1[16.7 µM]	11
COc1ccc(NC(=O)N(C)C[C@@H]2Oc3ccc(NC(=O)Nc4ccccc4)cc3CC(=O)N([C@@H](C)CO)C[C@H]2C)cc1	4[16.7 µM]	52
C[C@H]1CN([C@@H](C)CO)C(=O)c2cc(-c3ccccc3)cnc2O[C@@H]1CN(C)C(=O)Nc1ccc2c(c1)OCO2	9[16.7 µM]	-4
Cc1noc(C)c1NC(=O)Nc1ccc2c(c1)C(=O)N([C@H](C)CO)C[C@@H](C)[C@@H](CN(C)S(=O)(=O)c1c(C)noc1C)O2	8[16.7 µM]	7
Cc1noc(C)c1S(=O)(=O)N(C)C[C@H]1OCCCC[C@@H](C)Oc2ccc(NC(=O)Nc3ccc(C(F)(F)F)cc3)cc2C(=O)N([C@@H](C)CO)C[C@H]1C	44[16.7 µM]	-16
C[C@@H]1CN([C@@H](C)CO)C(=O)c2cccc(NS(=O)(=O)c3cccs3)c2O[C@H]1CN(C)Cc1ccc(Cl)c(Cl)c1	-24[16.7 µM]	3
C[C@@H]1CCCCO[C@H](CN(C)S(=O)(=O)c2cccs2)[C@H](C)CN([C@@H](C)CO)C(=O)c2cc(NC(=O)Nc3ccccc3)ccc2O1	-10[16.7 µM]	-6
C[C@@H]1CN([C@@H](C)CO)C(=O)c2cc(NC(=O)Nc3ccccc3)ccc2O[C@@H](C)CCCCO[C@@H]1CN(C)Cc1ccc(C(=O)O)cc1	0[16.7 µM]	9
C[C@@H]1CCCCO[C@H](CN(C)C(=O)NC2CCCCC2)[C@H](C)CN([C@@H](C)CO)C(=O)c2cc(NC(=O)CCCN(C)C)ccc2O1	8[16.7 µM]	20
C[C@H](CO)N1C[C@H](C)[C@@H](CN(C)CC2CCOCC2)Oc2ncc(C#CCC3CCCC3)cc2C1=O	7[16.7 µM]	31
C[C@H]1CN([C@@H](C)CO)C(=O)c2cc(C#Cc3cccnc3)cnc2O[C@H]1CN(C)Cc1cccnc1	0[16.7 µM]	-17
CC(C)NC(=O)Nc1cccc2c1O[C@@H](CN(C)Cc1ccccc1)[C@@H](C)CN([C@@H](C)CO)C2=O	3[16.7 µM]	-10
Cc1ccc(S(=O)(=O)N(C)C[C@H]2OCCCC[C@@H](C)Oc3ccc(NS(C)(=O)=O)cc3C(=O)N([C@@H](C)CO)C[C@@H]2C)cc1	-28[16.7 µM]	24
CC(C)NC(=O)N(C)C[C@@H]1Oc2ccc(NS(=O)(=O)c3cn(C)cn3)cc2CC(=O)N([C@H](C)CO)C[C@@H]1C	-16[16.7 µM]	-11
C[C@H](CO)N1C[C@H](C)[C@H](CN(C)Cc2cncnc2)Oc2ncc(-c3ccc(F)cc3)cc2C1=O	-73[16.7 µM]	2
Cc1noc(C)c1NC(=O)N[C@H]1CC[C@H](CCNC(=O)C2CCCC2)O[C@@H]1CO	8[16.7 µM]	4
CCCC(=O)Nc1ccc2c(c1)C(=O)N(C)[C@H]1CC[C@@H](CC(=O)N3CCc4ccccc4C3)O[C@@H]1CO2	-12[16.7 µM]	5
Cc1noc(C)c1S(=O)(=O)N(C)C[C@H]1OCCCC[C@@H](C)Oc2ccc(NS(=O)(=O)c3cccs3)cc2C(=O)N([C@@H](C)CO)C[C@H]1C	-7[16.7 µM]	-3
CN1C(=O)c2cc(NC(=O)c3ccc(F)c(F)c3)ccc2OC[C@@H]2O[C@H](CC(=O)N3CCCCC3)CC[C@H]21	4[16.7 µM]	-3
Cc1noc(C)c1S(=O)(=O)N(C)C[C@@H]1OCCCC[C@@H](C)Oc2ccc(NS(=O)(=O)c3ccc(Cl)cc3)cc2C(=O)N([C@H](C)CO)C[C@@H]1C	-24[16.7 µM]	-2
C[C@H](CO)N1C[C@H](C)[C@@H](CN(C)C(=O)c2ccc3c(c2)OCO3)Oc2cc(C#Cc3ccccc3F)ccc2S1(=O)=O	11[16.7 µM]	-20
C[C@@H]1CN([C@@H](C)CO)S(=O)(=O)c2ccc(C3=CCCCC3)cc2O[C@H]1CN(C)Cc1cccnc1	?	-3
CNC[C@@H]1Oc2ccc(NC(=O)C3CC3)cc2C(=O)N([C@H](C)CO)C[C@H]1C	8[16.7 µM]	-19
C[C@@H]1CCCCO[C@H](CN(C)S(=O)(=O)c2ccccc2)[C@@H](C)CN([C@H](C)CO)C(=O)c2cc(NS(=O)(=O)c3ccccc3)ccc2O1	-23[16.7 µM]	2
COc1ccc(S(=O)(=O)Nc2ccc3c(c2)C(=O)N([C@@H](C)CO)C[C@@H](C)[C@H](CN(C)C(=O)Cc2ccccc2)OCCCC[C@H](C)O3)cc1	-40[16.7 µM]	-5
CC(=O)N(C)C[C@H]1Oc2ncc(C#Cc3cccc(F)c3)cc2C(=O)N([C@H](C)CO)C[C@@H]1C	17[16.7 µM]	9
O=C(C[C@H]1CC[C@H](NC(=O)CN2CCOCC2)[C@H](CO)O1)NCCc1ccncc1	i	5
CN1CCN(C(=O)C[C@H]2CC[C@H](NC(=O)Nc3ccccc3F)[C@H](CO)O2)CC1	-14[16.7 µM]	11
C[C@H](CO)N1C[C@H](C)[C@H](CN(C)S(C)(=O)=O)Oc2ncc(C#Cc3cccc(F)c3)cc2C1=O	-3[16.7 µM]	6
C[C@@H]1CN([C@H](C)CO)C(=O)Cc2cc(NS(=O)(=O)c3cn(C)cn3)ccc2O[C@@H]1CN(C)S(C)(=O)=O	-25[16.7 µM]	-12
C[C@@H]1CN([C@H](C)CO)C(=O)c2cc(NC(=O)NC3CCCCC3)ccc2O[C@@H]1CN(C)Cc1ccc(Cl)c(Cl)c1	14[16.7 µM]	-3
COc1ccc(S(=O)(=O)Nc2ccc3c(c2)CC(=O)N([C@@H](C)CO)C[C@H](C)[C@H](CN(C)C(=O)Nc2c(C)noc2C)O3)cc1	-4[16.7 µM]	-7

Copied from the list.
Env fusion inh with `CN1CCN(C(=O)C[C@H]2CC[C@H](NC(=O)Nc3ccccc3F)[C@H](CO)O2)CC1` reads -14[16.7 µM]
Env fusion inh with `C[C@@H]1CN([C@H](C)CO)C(=O)Cc2cc(NS(=O)(=O)c3cn(C)cn3)ccc2O[C@@H]1CN(C)S(C)(=O)=O` reads -25[16.7 µM]

Later entries.
SMILES	Env fusion inh	Yeast UUG start
O=C(C[C@H]1C[C@H]2c3cc(NS(=O)(=O)c4ccc(F)cc4)ccc3O[C@H]2[C@@H](CO)O1)NCC1CC1	10[16.7 µM]	-12
Cc1ccccc1-c1ccc2c(c1)O[C@@H](CN(C)C(=O)Nc1ccccc1)[C@@H](C)CN([C@@H](C)CO)S2(=O)=O	-7[16.7 µM]	-15
CN1CCN(C(=O)C[C@@H]2C[C@H]3c4cc(NC(=O)Nc5ccccc5F)ccc4O[C@H]3[C@H](CO)O2)CC1	-29[16.7 µM]	-4
CCNC(=O)C[C@H]1CC[C@H]2[C@@H](COc3ccc(NC(=O)Nc4cccc(OC)c4)cc3C(=O)N2C)O1	-15[16.7 µM]	5
O=C(NCC[C@@H]1CC[C@H](NC(=O)c2cnccn2)[C@@H](CO)O1)Nc1ccc(F)cc1	11[16.7 µM]	159*
Cc1noc(C)c1NC(=O)N(C)C[C@H]1OCCCC[C@@H](C)Oc2ccc(NS(=O)(=O)c3ccc(Cl)cc3)cc2C(=O)N([C@@H](C)CO)C[C@H]1C	-65[16.7 µM]	8
CCC(=O)N(C)C[C@@H]1Oc2cc(C#CC3CCCC3)ccc2S(=O)(=O)N([C@@H](C)CO)C[C@H]1C	24[16.7 µM]	9
C[C@@H]1CCCCO[C@H](CN(C)Cc2ccc3c(c2)OCO3)[C@H](C)CN([C@H](C)CO)C(=O)c2cc(NC(=O)Cc3ccccc3)ccc2O1	-15[16.7 µM]	33
COc1ccccc1-c1ccc([C@H]2[C@@H](CO)N(C(=O)NC(C)C)[C@H]2C#N)cc1	-11[16.7 µM]	-28
CCC(=O)Nc1ccc2c(c1)OC[C@@H](C)N(C(=O)c1ccccc1F)C[C@H](C)[C@H](OC)CN(C)C2=O	-12[16.7 µM]	0
C[C@H](CO)N1C[C@H](C)[C@H](CN(C)Cc2ccc(C(F)(F)F)cc2)Oc2ccc(NC(=O)Nc3ccccc3)cc2C1=O	-18[16.7 µM]	6
CCS(=O)(=O)N[C@@H]1C=C[C@@H](CC(=O)NCC2CCCCC2)O[C@@H]1CO	6[16.7 µM]	-1
C[C@H]1CN([C@@H](C)CO)S(=O)(=O)c2ccc(C#CC3CC3)cc2O[C@H]1CN(C)Cc1ccccc1F	22[16.7 µM]	4
O=C(C[C@H]1C[C@H]2c3cc(NC(=O)C4CCOCC4)ccc3O[C@H]2[C@H](CO)O1)NC1CCCC1	-23[16.7 µM]	1
C[C@H](CO)N1C[C@H](C)[C@H](CN(C)C(=O)Nc2ccc(F)cc2)Oc2ncc(C#C[C@@H](C)O)cc2C1=O	-11[16.7 µM]	30
CC(=O)N(C)C[C@H]1Oc2cc(-c3ccc(C#N)cc3)ccc2S(=O)(=O)N([C@H](C)CO)C[C@H]1C	10[16.7 µM]	27
O=C(Cc1ccccn1)NCC[C@@H]1CC[C@@H](NS(=O)(=O)c2ccc(F)cc2)[C@H](CO)O1	6[16.7 µM]	-2
C[C@H]1CN([C@@H](C)CO)C(=O)c2cccc(NC(=O)Nc3ccc(F)cc3)c2O[C@H]1CN(C)S(=O)(=O)c1cccs1	6[16.7 µM]	10
CN1C(=O)c2cc(NC(=O)c3cccc(F)c3)ccc2OC[C@H]2O[C@H](CC(=O)O)CC[C@H]21	22[16.7 µM]	14
C[C@@H]1CN([C@@H](C)CO)C(=O)c2cccc(NC(=O)c3nc4ccccc4s3)c2O[C@H]1CN(C)C(=O)Nc1ccc(F)cc1	-3[16.7 µM]	14

Reprinted from the part before: 6 entries; new compounds follow.
SMILES	Env fusion inh	Yeast UUG start
C[C@H](CO)N1C[C@H](C)[C@H](CN(C)C(=O)Nc2ccc(F)cc2)Oc2ncc(C#C[C@@H](C)O)cc2C1=O	-11[16.7 µM]	30
CC(=O)N(C)C[C@H]1Oc2cc(-c3ccc(C#N)cc3)ccc2S(=O)(=O)N([C@H](C)CO)C[C@H]1C	10[16.7 µM]	27
O=C(Cc1ccccn1)NCC[C@@H]1CC[C@@H](NS(=O)(=O)c2ccc(F)cc2)[C@H](CO)O1	6[16.7 µM]	-2
C[C@H]1CN([C@@H](C)CO)C(=O)c2cccc(NC(=O)Nc3ccc(F)cc3)c2O[C@H]1CN(C)S(=O)(=O)c1cccs1	6[16.7 µM]	10
CN1C(=O)c2cc(NC(=O)c3cccc(F)c3)ccc2OC[C@H]2O[C@H](CC(=O)O)CC[C@H]21	22[16.7 µM]	14
C[C@@H]1CN([C@@H](C)CO)C(=O)c2cccc(NC(=O)c3nc4ccccc4s3)c2O[C@H]1CN(C)C(=O)Nc1ccc(F)cc1	-3[16.7 µM]	14
CC(=O)N(C)C[C@H]1Oc2ncc(-c3ccccc3F)cc2C(=O)N([C@H](C)CO)C[C@H]1C	-39[16.7 µM]	-13
O=C(C[C@@H]1CC[C@@H]2[C@H](COC[C@@H](O)CN2Cc2ccc(F)cc2)O1)NCc1ccncn1	-5[16.7 µM]	-6
COCC(=O)Nc1ccc2c(c1)C(=O)N(C)[C@H]1CC[C@@H](CC(=O)NCc3ccccc3Cl)O[C@H]1CO2	22[16.7 µM]	17
COc1cccc(-c2ccc([C@@H]3[C@@H](C#N)N(C(=O)c4ccccn4)[C@H]3CO)cc2)c1	-7[16.7 µM]	-7
C[C@H](CO)N1C[C@H](C)[C@H](CN(C)S(=O)(=O)c2ccc(F)cc2)Oc2c(NC(=O)C3CC3)cccc2C1=O	-24[16.7 µM]	8
C[C@@H]1CN([C@H](C)CO)C(=O)c2cc(NC(=O)Nc3ccc4c(c3)OCO4)ccc2O[C@H]1CN(C)C(=O)Nc1ccccc1	8[16.7 µM]	11
Cc1ccc(S(=O)(=O)Nc2cccc3c2O[C@H](CN(C)Cc2ccc(-c4ccccc4)cc2)[C@@H](C)CN([C@@H](C)CO)C3=O)cc1	-42[16.7 µM]	-10
CCNC(=O)C[C@@H]1CC[C@H]2[C@@H](COc3ccc(NC(=O)c4ccc5c(c4)OCO5)cc3C(=O)N2C)O1	-12[16.7 µM]	-5
C[C@@H]1CCCCO[C@@H](CN(C)Cc2ccc(Cl)c(Cl)c2)[C@@H](C)CN([C@H](C)CO)C(=O)c2cc(NS(=O)(=O)c3ccc(F)cc3)ccc2O1	-1[16.7 µM]	-6
COc1ccc(NC(=O)Nc2cccc3c2O[C@H](CN(C)C(=O)NC2CCCCC2)[C@H](C)CN([C@@H](C)CO)C3=O)cc1	-18[16.7 µM]	10

High-throughput results: PubChem BioAssay, Broad Institute
